Beta cell apopt = beta cell apoptosis inhibition; AID 435005; 0.8% of 300,000 active; protection from apoptosis, % (no concentration beside the values); INS-1E cytokine-induced death, ATP luminescence, 48 h; percent of positive-control rescue, neutral wells zero;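 active = all replicates at 75% or more, or half of them and the mean; inconclusive = half reach 75% but not the mean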;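 also: 0% = cytokine-treated negative control wells and 100% = positive control rescue; higher means more ATP so stronger rescue from cytokine killing; wells of about 40 µL received 100 nL stock; the first replicate is given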
T cruzi repl = T. cruzi replication inhibition. T. cruzi beta-gal in NIH3T3, luminescence, 90 h. inhibition, % (concentration not given with the values). 1.4% of 300,000 active. AID 1885;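 active = mean inhibition across valid replicates above about 55%, limit read from the data; inconclusive = mean below that limit but half or more replicates reach it; inactive = mean below it, under half of replicates reach it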;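 also: signal also drops with host cell toxicity which is not excluded here; 0% = plate median of DMSO wells and 100% = zero luminescence signal; higher percent means less beta-gal luminescence so fewer parasites; stock transfer was 50 nL into about 50 µL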
A1 inh = inhibitors of the anti-apoptotic protein A1, read as caspase activation. 0.066% of 330,000 active. AID 2462. caspase activation, % (no concentration beside the values). MEF A1-2A-BIM cells, Caspase-Glo 3/7 luminescence, 3 h; percent of clofoctol response, vehicle zero;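 active = over half of replicate activation scores above 10%, or exactly half above 10 with the replicate mean above 10; inconclusive = replicate mean below 10 yet half the replicates above 10; inactive = over half of replicates below 10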;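 also: wells of about 30 µL received 50 nL stock; many hits fall short of the cut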
LANA-H2A inh = blocks KSHV LANA binding to histone H2A/H2B; cell-free LANA-H2A/H2B peptide, fluorescence polarization; inhibition, % (concentration not given with the values); 0.6% of 320,000 active; Q9QR71; in the data active = inhibition mostly above about 10%, no sharp cut-off; inactive = mostly below about 6.7%;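 also: stock transfer was 7.5 nL into about 10 µL; 0% = median of vehicle wells and 100% = median of positive control wells; one replicate is shown; the record names a cut of 25% in any replicate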
UCH37 inh = blocks the human deubiquitinase UCH37; inhibition, % (no concentration beside the values); 0.33% of 330,000 active; purified proteasome/UCH37, Ub-AMC cleavage fluorescence; Q9Y5K5;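 active = mean of two replicates above 20%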;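 also: 0% = compound-free wells with enzyme and 100% = wells lacking proteasome; stock transfer was 100 nL into about 20 µL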
Target sequence (Q9Y5K5 whole entry, looked up): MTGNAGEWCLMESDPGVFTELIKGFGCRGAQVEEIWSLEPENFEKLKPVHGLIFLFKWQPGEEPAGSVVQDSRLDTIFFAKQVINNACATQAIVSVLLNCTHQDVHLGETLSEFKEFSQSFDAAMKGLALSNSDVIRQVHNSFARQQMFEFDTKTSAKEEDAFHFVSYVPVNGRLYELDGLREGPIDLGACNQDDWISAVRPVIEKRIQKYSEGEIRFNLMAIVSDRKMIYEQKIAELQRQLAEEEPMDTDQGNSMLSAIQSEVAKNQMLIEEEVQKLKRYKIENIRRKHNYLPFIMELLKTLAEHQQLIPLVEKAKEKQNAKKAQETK
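Signal – fluorescence, ex 355 nm, em 460 nm · System – Proteasome-bound UCH37 · Input – 0.15 nM proteasome as dispensed · Timing – 30 min preincubation with enzyme, 25 min cleavage at room temperature · Read-out basis – percent inhibition of cleavage signal versus uninhibited and no-proteasome wells · Medium – Tris-HCl pH 7.4 with ATP-MgCl2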
Beta2AR agonist = agonists of human beta-2 adrenergic receptor inducing internalization | AID 504454 | Am2.2-beta2AR cells, FAP receptor internalization, flow cytometry; reference of the scale not given here | 0.43% of 340,000 active | response, % (test concentration not listed);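 active = response above a set limit, near 3 SD of response in nonfluorescent compounds, cut at about 42% in these data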;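 also: stock transfer was 100 nL into about 11 µL; a reference agonist was the positive control; negative values mostly stem from fluorescent compounds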
Target sequence (P07550 whole entry, looked up): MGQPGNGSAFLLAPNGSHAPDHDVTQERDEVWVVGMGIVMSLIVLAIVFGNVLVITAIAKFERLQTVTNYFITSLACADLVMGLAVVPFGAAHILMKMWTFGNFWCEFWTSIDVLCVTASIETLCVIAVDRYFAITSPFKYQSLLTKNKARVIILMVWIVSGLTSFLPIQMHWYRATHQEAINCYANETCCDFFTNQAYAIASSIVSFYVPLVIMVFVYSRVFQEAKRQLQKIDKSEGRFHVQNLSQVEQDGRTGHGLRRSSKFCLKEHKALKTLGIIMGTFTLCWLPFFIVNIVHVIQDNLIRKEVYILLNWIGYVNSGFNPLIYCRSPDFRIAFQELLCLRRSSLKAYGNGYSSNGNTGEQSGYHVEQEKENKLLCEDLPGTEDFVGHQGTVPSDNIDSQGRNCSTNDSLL
RanGTP-Impb inh = disruptors of Ran-importin-beta complex formation – biochemical, FRET, CFP-Ran, YFP-importin-beta, homogeneous, primary screen; inhibition, % (no concentration beside the values); cell-free CFP-Ran/YFP-importin-beta FRET ratio; 1.1% of 300,000 active;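 active = most replicates above 15%; inconclusive = exactly half above 15%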;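 also: 0% = DMSO wells and 100% = Ran loaded with GDP instead of GTP; wells of about 40 µL received 100 nL stock; the first replicate is given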
Calb FLC = C. albicans growth modulation with fluconazole | C. albicans CaCi-2 (fluconazole-resistant clinical isolate) + fluconazole, Alamar Blue growth, 48 h | growth inhibition, % (test concentration not listed) | 0.57% of 300,000 active;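 active = most replicates above 75%; inconclusive = exactly half above 75%; inactive = most below 75%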;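 also: all wells also contain fluconazole at 8 µg/ml as a sub-toxic cotreatment; 0% = median of DMSO wells and 100% = median of geldanamycin control wells; wells of about 8 µL received 7.5 nL stock; the first replicate is given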
* hit, by the source's call; ? = inconclusive; . = not tested or not shown.

SMILES	Beta cell apopt	T cruzi repl	A1 inh	LANA-H2A inh	UCH37 inh	Beta2AR agonist	RanGTP-Impb inh	Calb FLC
CCCCOC(=O)c1ccccc1C(=O)OCCCC	-2	.	0.0	-2.2	-0.3	8	.	.
Cc1ccc(CN2CC3CC(C2)c2cccc(=O)n2C3)cc1 (configuration not stated)	-8	24	0.2	2.8	0.8	0	0.2	7
Cc1oc(-c2ccccc2Cl)nc1CN1C(=O)CN=C(c2ccccc2)c2ccccc21	-6	-8	0.9	-0.8	4.5	-3	-2.8	2
Cc1[nH]n(-c2ccccc2)c(=O)c1C(c1ccc([N+](=O)[O-])cc1)c1c(C)[nH]n(-c2ccccc2)c1=O	-4	-9	-0.2	-1.2	13	15	3.0	-19
Clc1cnc(Oc2ccc(Oc3ncc(Cl)cc3Cl)cc2)c(Cl)c1	2	11	-0.9	-1.0	-2.4	8	4.1	2
O=C(COc1ccc2ccccc2c1)N1CCN(C2CCN(Cc3ccccc3)CC2)CC1	.	52	0.4	0.1	5.3	-9	1.1	-3
CN1OCC2Cn3c(nc4ccccc43)C21 (configuration not stated)	-5	.	0.6	-0.8	1.4	-1	.	.
O=c1c2ccccc2nc(-c2cccs2)n1-c1cnccn1	-2	-1	1.0	2.0	5.1	-19	-2.3	-14
CC1CC(OC(=O)c2ccccc2)CC(C)N1C (configuration not stated)	0	0	0.0	2.5	3.7	-4	7.3	-7
CCCC(=O)c1c(O)[nH]c(=O)[nH]c1=O	-8	-8	-0.4	-5.1	1.3	6	-4.1	9
COc1ccccc1-n1c(O)c(C=NC2CC2)c(=O)[nH]c1=O	-4	-11	1.2	-4.2	4.7	3	2.3	-1
CCN1C(=O)/C(=C/c2ccc(N(CC)CC)cc2OC)C(=O)NC1=S	-6	1	1.9	1.3	1.2	-119	0.9	7
CCCN1CC(C)C(OC(C)=O)(c2ccccc2)CC1C (configuration not stated)	-2	3	-0.6	10	-4.7	2	-0.9	11
COC(=O)C1=C(c2ccc3ccccc3c2)C[C@@H]2CC[C@H]1N2C	-6	.	0.8	-2.3	2.0	2	.	.
CC(=O)[C@H]1CC[C@H]2[C@@H]3CC[C@H]4C[C@H](O)CC[C@]4(C)[C@H]3C(=O)C[C@]12C	-4	10	1.8	-2.3	4.4	-6	-2.5	33
COC(=O)C1=C(c2ccc(Cl)c(C(F)(F)F)c2)C[C@@H]2CC[C@H]1N2C(=O)NCCO	-1	.	1.0	4.5	33*	-4	.	.
Cn1c(O)c(C=NCCc2c[nH]c3ccccc23)c(=O)n(C)c1=O	0	5	0.3	-3.6	7.4	2	-1.4	-1
CC(=Nc1ccc2c(c1)CCC2)c1c(O)n(C)c(=O)n(C)c1=O	9	-12	-1.0	-0.4	32*	-15	?	0
CCC(=NCCCn1ccnc1)c1c(O)n(-c2ccc(OC)cc2)c(=O)[nH]c1=O	3	-12	-0.3	-0.5	1.3	9	1.4	15
CC(NCC#Cc1ccccc1)C(O)c1ccccc1 (configuration not stated)	-3	4	0.0	3.9	3.8	4	2.0	-1
CCOc1cc2c(cc1OCC)-n1cccc1C(c1cccc(F)c1F)NC2 (configuration not stated)	1	36	0.2	0.1	4.8	0	5.0	15
COC(=O)C1=C(c2cccc(C#N)c2)C[C@@H]2CC[C@H]1N2C(=O)NCCOc1ccccc1Cl	-14	.	0.1	-2.5	46*	4	.	.
COC(=O)C1=CO[C@@H](C)[C@@H]2CN(CCc3c[nH]c4ccccc34)CC[C@H]12	-1	33	0.1	1.5	0.4	3	8.5	4
COc1ccc(-c2cc(=Nc3cccc(C(=O)O)c3)c3cc(C)ccc3o2)cc1	6	18	-7.7	-1.7	14	12	0.9	-10
CC(=NCc1ccc2c(c1)OCO2)c1c(O)n(-c2ccc(C)cc2)c(=O)[nH]c1=O	.	-15	1.4	6.9	1.7	3	-0.3	5
SMILES	Beta cell apopt	T cruzi repl	A1 inh	LANA-H2A inh	UCH37 inh	Beta2AR agonist	RanGTP-Impb inh	Calb FLC
Cc1cc(-c2ccccc2)cc(C)[n+]1Cc1ccccc1	109*	37	0.1	-8.2	-0.6	2	0.2	-25
O=c1c2ccccc2nc(-c2ccoc2)n1-c1ccccc1Cl	3	27	0.8	-3.4	1.7	-6	2.0	5
Cc1cc(N2CCOCC2)nc2ccc(NC(=O)CCC(=O)N3CCC4(CC3)OCCO4)cc12	-6	-7	0.2	0.9	-448	-3	-1.4	-10
Cn1cccc1CNCCc1ccccc1F	-4	0	-0.1	1.0	1.6	0	0.5	-1
Oc1ccc2c3c1O[C@H]1c4[nH]c5ccccc5c4C[C@@]4(O)C(C2)N(CC2CC2)CC[C@]314	-3	17	-0.1	5.0	.	.	8.7	.
O=P(CCl)(Nc1ccccc1)C(Cl)(Cl)Cl (configuration not stated)	11	-7	-0.3	-7.4	0.4	-5	4.8	-7
Cc1cc(/C=C2\C(=O)NC(=O)N(C)C2=O)c(C)n1-c1ccc2c(c1)OCO2	.	-5	-0.4	-0.9	-3.7	-3	0.2	6
CC(C)OP(=O)(Oc1ccc(C(O)C(Cl)(Cl)Cl)cc1)OC(C)C (configuration not stated)	-4	24	0.5	1.6	4.8	0	4.2	4
COc1nc2ccccc2nc1N1CCN(C)CC1	-1	2	1.3	0.2	-6.3	7	1.8	6
CNC(=O)N(C)c1ccc(C(O)(C(=O)OC)C(F)(F)F)cc1 (configuration not stated)	-3	-10	0.0	1.6	7.4	1	-0.9	-4
O=C(c1cccc(C(F)(F)F)c1)N1C[C@H]2C[C@@H](C1)c1cccc(=O)n1C2	3	-16	-0.5	-1.7	0.6	14	1.6	-4
C[C@@H]1O[C@@H](O[C@H]2C[C@@H](O)[C@]3(CO)[C@@H]4C(CC[C@]3(O)C2)[C@@]2(O)CC[C@H](C3COC(=O)C3)[C@@]2(C)C[C@H]4O)[C@H](O)[C@H](O)[C@H]1O (some centres not stated)	0	.	-0.3	-3.2	-0.1	3	.	.
COc1ccc(-n2c(/C=C/c3ccc(O)c(O)c3)nc3ccccc3c2=O)cc1	12	-6	0.0	-2.2	-19	-23	-0.3	0
O=c1[nH]c(=S)[nH]c(O)c1N=Nc1cc2c(cc1[N+](=O)[O-])OCO2	33	5	-0.6	-6.7	19	3	-8.6	-2
CC(C)Sc1nnc([C@@H](N)Cc2c[nH]c3ccccc23)o1	-3	23	0.1	-3.4	0.9	-2	-1.4	-1
CC(C)CCNC(=O)c1cc(C(=O)c2cc(F)ccc2O)cn(CCC(C)C)c1=O	-5	22	0.0	1.5	0.7	-11	?	3
CCOC(=O)C1=C(N)OC2=C(C(=O)CC(C)(C)C2)C12C(=O)Nc1ccccc12 (configuration not stated)	-4	-16	0.1	-3.7	4.0	3	-1.7	-17
CN1CC(C(=O)c2ccccc2)C(C(=O)c2ccccc2)C1 (configuration not stated)	-9	.	0.6	-1.4	4.0	3	2.1	-3
C=CCn1c(O)c(C(C)=NCCCn2ccnc2)c(=O)[nH]c1=O	-2	-26	0.2	2.1	3.0	-2	-1.3	0
CCN(CC(=O)Nc1ccc(C#N)c(Cl)c1)CC(=O)NC(C)(C)C	-4	-6	0.2	-6.2	-0.9	7	5.5	-7
O=C1NC(=O)N(CC2CCCO2)C(=O)/C1=C/c1cccs1 (configuration not stated)	4	-6	1.1	0.8	3.8	16	0.9	13
O=C(Nc1ccccc1)c1c(O)[nH]c(=O)[nH]c1=O	-7	-10	-0.3	-2.4	4.0	5	2.1	3
Cc1nn(C)c(C)c1P(=S)(c1c(C)nn(C)c1C)N(C)C	-2	-12	0.0	-9.9	0.0	1	-5.0	-35
OC(CNCCc1c[nH]c2ccccc12)C(F)(F)F (configuration not stated)	-7	-7	0.5	-2.6	4.5	9	1.2	6
Cc1ccc(C(=O)NC(O)C(Cl)(Cl)Cl)cc1 (configuration not stated)	-4	11	-0.4	1.2	3.5	8	-1.4	-21
SMILES	Beta cell apopt	T cruzi repl	A1 inh	LANA-H2A inh	UCH37 inh	Beta2AR agonist	RanGTP-Impb inh	Calb FLC
O=C(CCCC1=NS(=O)(=O)c2ccccc2N1)N1CCC2(CC1)OCCO2	.	-10	-0.5	1.9	5.5	1	0.8	24
CCOC(=O)Cc1csc(NC(=O)c2c(O)c3ccccc3n(CCC(C)C)c2=O)n1	-5	-7	-0.4	15*	1.7	9	-1.8	10
Cc1c(C=C2C(=O)N(C)C(=S)N(C)C2=O)c2ccccc2n1CC(=O)NCC1CCCO1 (configuration not stated)	5	.	2.1	2.5	6.5	38	.	-5
CCC(C)n1c(O)c(C=NCC2CCCO2)c(=O)[nH]c1=S (configuration not stated)	-10	-2	0.1	-4.3	6.1	-3	2.5	-19
CC1(C)C(C(=O)N2CCN(c3ccc(Cl)cc3)CC2)C1(C)C	7	13	-0.4	1.4	2.2	-3	-4.3	.
O=c1[nH]c(=O)n(-c2cccc(F)c2)c(O)c1/C=C1\C=Nc2ccccc21	-5	-27	0.3	-0.2	1.6	44*	4.1	-7
CCCCn1c(O)c(C(C)=Nc2cccc(C(=O)O)c2)c(=O)[nH]c1=O	-6	6	0.9	0.1	7.5	-1	-0.9	-22
COc1cc2c(cc1OC)-c1c(OC)c(OC)cc3c1[C@H](C2)N(C)CC3	45	14	-0.8	-0.8	1.8	6	-0.1	5
CC(C)CCOP(N)(=O)Oc1ccccc1 (configuration not stated)	.	-8	0.6	-1.2	1.4	-4	-2.5	-21
COc1ccc(-n2c(CN3CCOCC3)nc3ccccc3c2=O)c(OC)c1	1	-6	-0.7	-2.5	0.7	0	3.9	17
C[C@]12CCC3C(CC[C@H]4C[C@@H](O)CC[C@]34C)C1C[C@@H](O)[C@]2(C)O (some centres not stated)	-3	.	-0.1	-2.8	0.8	-2	.	.
Cc1nn(Cc2ccc(Cl)cc2Cl)c(Cl)c1C(=O)NC1CCCc2ccccc21 (configuration not stated)	.	16	0.0	1.0	3.2	-6	-0.8	-18
COc1ccc(CCNCc2ccc(OC)c(OC)c2OC)cc1	0	32	0.8	2.1	4.6	11	-1.5	-8
O=[N+]([O-])c1ccc(N2CCOCC2)c2ccncc12	.	-4	0.1	-1.4	9.6	15	?	-15
Cc1cccc(-c2nc3ccc(C(=O)N4CCC5(CC4)OCCO5)cc3nc2-c2cccc(C)c2)c1	-4	32	0.7	-0.7	-143	26	2.9	13
CC#CP(=O)(OCC)C(O)(c1ccccc1)C(F)(F)F (configuration not stated)	-4	-14	0.2	-0.6	1.9	-2	-1.4	-29
CCOC(=O)c1c(C)n(Cc2ccc(F)cc2)c2ccc(O)cc12	1	2	-0.6	6.8	1.4	0	?	5
COc1ccc(CNC(C)Cc2cccs2)cc1 (configuration not stated)	-9	-4	0.5	14	2.7	-5	-2.8	13
COc1ccccc1-n1c(O)c(/C=N/NC(=S)Nc2ccccc2)c(=O)[nH]c1=S	1	-27	1.1	-5.4	7.2	-1	0.4	0
O=C(O)c1nonc1-c1nonc1C(=O)O	-1	.	0.1	0.2	2.1	14	.	.

Screening data deposited in PubChem by several laboratories.

Only part of the results is shown; the hit share may differ from the screen's.
